# Yeast UUG start – alters start codon recognition fidelity in yeast; S. cerevisiae UUG-firefly luciferase reporter, luminescence/redox ratio; activity score, % at 18.7 µM; 350,000 tested, 0.13% active; AID 602363;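 active = replicate mean at a twofold rise or more, about +100% in these data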;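 also: firefly luciferase made from a UUG start codon reports start codon fidelity; reporter light over untreated wells divided by growth signal over untreated wells; some hits fall short of that in this replicate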
# Rce1 inhib – yeast Ras-converting enzyme inhibition. Q03530. yeast membranes, quenched prenylated peptide cleavage fluorescence. calls only. 290,000 tested, 0.27% active. AID 2563;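 active = fall in fluorescence gain of 50% or more versus controls, with final raw signal at or below 3038400; inconclusive = same 50% fall but final raw signal above 3038400; inactive = fall in fluorescence gain under 50%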;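 also: plate controls were neutral control wells for no effect and wells lacking membranes for full effect; tested at 10 µM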
# Target sequence (Q03530 whole entry, looked up): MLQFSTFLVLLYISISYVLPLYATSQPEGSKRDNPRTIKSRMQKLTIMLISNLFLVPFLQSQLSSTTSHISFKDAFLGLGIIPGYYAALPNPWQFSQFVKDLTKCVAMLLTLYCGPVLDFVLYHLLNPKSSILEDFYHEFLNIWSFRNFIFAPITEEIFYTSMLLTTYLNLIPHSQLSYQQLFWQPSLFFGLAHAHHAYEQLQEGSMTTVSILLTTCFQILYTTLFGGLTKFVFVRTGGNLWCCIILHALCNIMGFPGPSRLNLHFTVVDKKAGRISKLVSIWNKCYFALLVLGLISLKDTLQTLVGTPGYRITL
# CSC inhib – blocks cancer stem cells | cancer stem cell-like cells viability, luminescence | inhibition, % at 7.5 µM | 300,000 tested, 1.1% active;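 active = mean at 75% or more and at least half the replicates too; inconclusive = mean and replicates disagree; tested in HMLE shEcad cells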;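 also: 0% = median of negative and 100% = median of positive control wells; the first replicate is given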
# eIF4H inh – inhibitors of RNA binding by human eIF4H; inhibition, % at 35 µM; Q15056; eIF4H fluorescence polarization binding assay; 290,000 tested, 0.94% active;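 active = 50% or more with normal probe brightness, or confirmed in later tests; inconclusive = above 50% with abnormal brightness, or retests that disagree; inactive = below 50% or failed in later tests; about a fifth of its hits are not listed in these tables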;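 also: calls also rest on retests at 20 µM and on dose response follow-up; 0% = protein and probe with vehicle and 100% = probe without protein; strong numbers were not always called active; many hits fall short of the cut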
# PABP polyA inh – blocks human PABP binding to poly(A) RNA; P11940; fluorescence polarization; inhibition, % at 35 µM; 290,000 tested, 1% active; AID 2014;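 active = 50% or more with normal probe brightness, or confirmed in later tests; inconclusive = above 50% with abnormal brightness, or retests that disagree; inactive = below 50% or failed in later tests; about a fifth of its hits are not listed in these tables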;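 also: calls also rest on retests at 20 µM and on dose response follow-up; controls were probe without protein and protein plus probe with vehicle; some compounds called inactive have numbers as strong as hits; many hits fall short of the cut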
# Target sequence (P11940 whole entry, looked up): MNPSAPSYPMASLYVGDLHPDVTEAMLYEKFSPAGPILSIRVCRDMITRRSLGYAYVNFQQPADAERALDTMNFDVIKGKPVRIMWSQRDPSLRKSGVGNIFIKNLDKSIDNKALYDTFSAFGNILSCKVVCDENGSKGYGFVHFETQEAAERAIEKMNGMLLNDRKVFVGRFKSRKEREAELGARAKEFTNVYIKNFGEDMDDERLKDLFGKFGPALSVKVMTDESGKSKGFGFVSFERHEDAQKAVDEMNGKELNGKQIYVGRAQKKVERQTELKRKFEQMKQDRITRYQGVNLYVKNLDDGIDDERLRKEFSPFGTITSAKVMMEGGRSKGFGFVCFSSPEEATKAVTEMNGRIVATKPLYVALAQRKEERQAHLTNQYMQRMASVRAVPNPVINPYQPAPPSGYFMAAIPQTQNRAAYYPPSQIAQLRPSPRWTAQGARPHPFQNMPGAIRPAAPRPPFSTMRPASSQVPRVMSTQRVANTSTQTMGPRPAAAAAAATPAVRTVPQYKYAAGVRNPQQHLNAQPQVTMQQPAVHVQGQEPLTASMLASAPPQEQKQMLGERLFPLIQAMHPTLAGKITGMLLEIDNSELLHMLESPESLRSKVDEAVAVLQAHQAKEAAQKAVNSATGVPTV
# Env fusion inh – blocks HIV Env-driven cell-cell fusion. HeLa-JRFL Env/CEM21 cell fusion, luciferase. inhibition, % at 12.3 µM. 360,000 tested, 1.1% active. AID 651610;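 active = mean replicate inhibition score of at least 50 and every replicate individually at or above 50; inconclusive = only one of the two criteria met; inactive = mean below 50 and not all replicates reaching 50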;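 also: 0% = plate neutral controls and 100% = maraviroc near 300 nM; one replicate is shown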
# MT1-MMP act inh – inhibitors of human MT1-MMP activation. P50281. HT1080 RFP-PRO-GFP cells, GFP/RFP ratio fluorescence, overnight; percent of plate control window, DMSO zero. GFP/RFP ratio change, % at 20 µM. 360,000 tested, 0.061% active. AID 651647;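 active = GFP/RFP ratio change of at least 30% with cell ATP level not reduced by more than half and red fluorescence within 50% of control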; also: strong numbers were not always called active
#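 Read-out: GFP/RFP fluorescence ratio; Test system: RFP-PRO-GFP reporter HT1080 cells; Compound dosing: single-point 20 µM compound, 1% DMSO; Times: overnight compound exposure at 37 °C.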
# eIF4H inh retest – recorded beside eIF4H inh, whose call it bears; inhibition, %; compound at 20 µM; confirmation average;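 mean of two retest wells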
# PABP polyA inh retest – second read-out of PABP polyA inh, no call of its own (marks repeat the call); inhibition, %; compound at 20 µM; confirmation repeats;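 mean of two retest wells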
# MT1-MMP act inh RFP – further read-out of MT1-MMP act inh, marked with its call; RFP signal change, %; measured here: RFP expression control read;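 0 = vehicle wells; hits needed this value within 50% of zero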
# Starred values were filed as active, the others as inactive; i = inactive; ? = inconclusive; / = not tested or not shown.
SMILES,Yeast UUG start,Rce1 inhib,CSC inhib,eIF4H inh,PABP polyA inh,Env fusion inh,MT1-MMP act inh,MT1-MMP act inh RFP,others
CC(O)CNc1nc2ccccc2n1CC(=O)NCCc1ccc(Cl)cc1 (configuration not stated),-8,i,-14,6,8,/,-3,5,
Cc1[nH]nc2c1C(c1ccc3c(c1)OCO3)C(C#N)=C(N)O2 (configuration not stated),-30,i,-2,-14,-1,-3,-3,1,
CC(C)n1cc(/C=C/c2cc[n+](C)cc2)c2ccccc21,-9,i,/,?,?,72*,-243,-21,
CNC(=O)c1ccccc1NC(=O)c1cccc(S(=O)(=O)N2CCC(C)CC2)c1,/,i,-9,-2,-13,/,6,-19,
O=C(NNC(=O)c1cc(-c2ccco2)nc2ccccc12)c1ccccc1,-2,i,0,24,29,-38,2,1,
O=C(/C=C/c1ccc(F)cc1)N1CCN(S(=O)(=O)/C=C/c2ccccc2)CC1,/,i,/,-10,-3,25,2,0,
CC1CCN(CCNC(=O)C2CCCN(S(=O)(=O)c3cccc4nsnc34)C2)CC1 (configuration not stated),-1,i,-7,-8,-5,2,-6,-1,
Cc1cccc(C(=O)NCC2CCCO2)c1 (configuration not stated),13,i,-8,2,17,/,3,5,
Cc1ccc(OCC(=O)N2c3ccccc3NC(=O)C2(C)C)c([N+](=O)[O-])n1,/,i,/,8,-2,1,-4,-1,
CCc1ccc(C(CC(=O)c2ccc(Cl)cc2)C(=O)O)cc1 (configuration not stated),0,i,7,-2,1,-54,1,3,
COc1ccc(C(=O)Nc2nc(-c3ccc([N+](=O)[O-])cc3)c(-c3ccc(OC)cc3)s2)cc1,/,i,/,77,-1,-9,-11,-9,eIF4H inh retest=6;PABP polyA inh retest=0
CCOC(=O)c1sc(/N=C/c2ccc(O)cc2O)cc1C,/,i,0,15,2,/,0,0,
CC(C)(C)C(=O)Cn1c[n+](N)cn1,-11,i,-16,-7,-4,/,3,5,
CCCCCCOc1ccc(C(=O)O)cc1C#N,-6,i,6,-2,-2,-7,-5,2,
O=C(Nc1nnc(-c2ccc3c(c2)CCCC3)o1)c1ccccc1Cl,-22,i,35,29,-2,17,0,-3,
CCc1nc2ccccc2n1CC1CC1(Cl)Cl (configuration not stated),-13,i,-7,-6,4,-1,-1,2,
COC(=O)C1CCCCN1C(=O)CCc1nnc(CCc2c[nH]c3ccccc23)o1 (configuration not stated),/,i,4,-4,-10,2,-2,-4,
CN(C)c1cccc(C(=O)NNC(=O)CN2C(=O)C3CC=CCC3C2=O)c1 (configuration not stated),-22,/,4,/,/,-131,2,1,
Cc1ccc(C)c(N2CN(Cc3cccnc3)CNC2=S)c1,-17,i,/,-4,-2,/,5,3,
CSc1nc(-c2ccccc2)nc2c1COC(C)(C)C2,4,i,-5,-2,-2,-119,-23,-1,
COc1cc(C=NNC(=O)c2cccnc2)ccc1OC(=O)c1ccccc1F,-11,/,-7,/,/,5,-1,-1,
O=c1c2c(nc3n1CCCCC3)-c1ccccc1CC21CCCCC1,-11,i,59,-3,-5,3,5,-5,
COc1ccccc1OC(C)C(=O)N1CCC(Cc2ccccc2)CC1 (configuration not stated),0,/,3,-2,16,11,-4,-2,
NC(=O)NC(=O)CN1c2cccc3cccc(c23)S1(=O)=O,1,i,3,3,22,-5,3,7,

# Fetched one by one from the list above (four):
SMILES,Yeast UUG start,Rce1 inhib,CSC inhib,eIF4H inh,PABP polyA inh,Env fusion inh,MT1-MMP act inh,MT1-MMP act inh RFP,others
NC(=O)NC(=O)CN1c2cccc3cccc(c23)S1(=O)=O,1,i,3,3,22,-5,3,7,
CCc1nc2ccccc2n1CC1CC1(Cl)Cl (configuration not stated),-13,i,-7,-6,4,-1,-1,2,
Cc1ccc(C)c(N2CN(Cc3cccnc3)CNC2=S)c1,-17,i,/,-4,-2,/,5,3,
COc1cc(C=NNC(=O)c2cccnc2)ccc1OC(=O)c1ccccc1F,-11,/,-7,/,/,5,-1,-1,

# The list continues.
SMILES,Yeast UUG start,Rce1 inhib,CSC inhib,eIF4H inh,PABP polyA inh,Env fusion inh,MT1-MMP act inh,MT1-MMP act inh RFP,others
C=CCN1C(=O)/C(=C\C=C2\N(C)c3ccccc3C2(C)C)SC1=S,/,i,70,?,9,1,-8,66,
ClC(CCN1CCN(Cc2ccccc2)CC1)c1ccccc1 (configuration not stated),/,i,5,/,/,-13,0,1,
O=C(Nc1ccc(S(=O)(=O)N2CCOCC2)cc1)C1CCN(S(=O)(=O)c2ccccc2)CC1,9,i,2,/,/,-1,-1,-6,
CS(=O)(=O)CCC(C(=O)OCc1ccc(Br)cc1)N1C(=O)c2ccccc2C1=O (configuration not stated),/,i,1,-9,1,-5,-3,1,
CCn1c(SCC(=O)OC2CCCCC2)nc2ccccc2c1=O,/,i,-11,-5,2,26,5,-5,
COc1ccc(N(C(=O)c2snc(C(N)=O)c2N)C(C(=O)NCc2ccccc2)c2ccc(F)cc2)c(OC)c1 (configuration not stated),-14,i,12,-1,9,-16,-9,-6,
CCOc1ccccc1NC(=O)N1CCC(c2nc3ccccc3[nH]2)CC1,-5,i,2,-4,-3,12,12,5,
COc1cc(CN2CC(C)CC(C)C2)cc([N+](=O)[O-])c1O (configuration not stated),/,i,-3,-5,-9,13,7,5,
Cc1onc(C(=O)Nc2ccc(OC(F)(F)F)cc2)c1[N+](=O)[O-],-10,i,-1,-6,6,/,2,-2,
O=C(CN(C(=O)c1csnn1)c1ccccc1Cl)NCCc1ccccc1,7,i,/,-2,-3,9,-5,-7,
O=C(O)CCCC(=O)N1N=C(c2ccco2)CC1c1ccco1 (configuration not stated),-2,i,14,7,-3,-5,5,-1,
C=CCn1c(CNC(=O)c2ccccc2F)nnc1SCC(=O)NC(C)c1ccccc1 (configuration not stated),/,i,-10,-17,-7,15,1,3,

# Arranged by molar mass (descending): 3 of the compounds above
SMILES,Yeast UUG start,Rce1 inhib,CSC inhib,eIF4H inh,PABP polyA inh,Env fusion inh,MT1-MMP act inh,MT1-MMP act inh RFP,others
C=CCN1C(=O)/C(=C\C=C2\N(C)c3ccccc3C2(C)C)SC1=S,/,i,70,?,9,1,-8,66,
O=C(O)CCCC(=O)N1N=C(c2ccco2)CC1c1ccco1 (configuration not stated),-2,i,14,7,-3,-5,5,-1,
COc1cc(CN2CC(C)CC(C)C2)cc([N+](=O)[O-])c1O (configuration not stated),/,i,-3,-5,-9,13,7,5,

# Further compounds.
SMILES,Yeast UUG start,Rce1 inhib,CSC inhib,eIF4H inh,PABP polyA inh,Env fusion inh,MT1-MMP act inh,MT1-MMP act inh RFP,others
Cc1ccc(S(=O)(=O)N2CCC(C(=O)Nc3ccc4c(c3)COC4=O)CC2)cc1,-2,i,/,5,4,/,4,4,
CS(=O)(=O)N1CCN(c2ccc(C(=O)N3CCOCC3)cc2[N+](=O)[O-])CC1,/,/,-5,3,3,9,1,1,
Cc1ccc(C)c(NC(=S)NCCCN2CCOCC2)c1,/,i,-11,4,7,-12,0,4,
COc1ccc(CCN(C)C(=O)CCNC(=O)c2ccc(Br)cc2)cc1OC,2,i,5,-10,-2,7,3,-1,
Cc1ccc(OCC(=O)NNC(=O)CSc2ncnc3sc(C)c(C)c23)cc1,/,i,3,14,-13,1,-3,0,
O=C(OCc1nnc(-c2cccs2)o1)C1=NN(c2ccccc2)C(=O)CC1,-14,/,-9,/,/,9,-7,7,
Cc1ccc(S(=O)(=O)N(C)CC(=O)O/N=C(\N)c2ccccn2)cc1,/,i,/,-3,-7,/,-1,7,
O=C(/C=C/c1ccco1)NC(=S)Nc1ccccc1O,/,i,-2,?,-5,-4,2,2,
Cc1ccn2c(=O)nc(SCC(=O)N3N=C(c4cccs4)CC3c3ccc(F)cc3)nc2c1 (configuration not stated),3,i,-4,/,/,7,-6,-4,
CC(=O)N1N=C(c2ccc(C)o2)CC1c1ccc(F)cc1 (configuration not stated),/,i,-8,2,-9,/,6,5,
CC(Cc1ccccc1)C(=O)N(C)Cc1cccnc1 (configuration not stated),-22,i,-1,6,16,-5,-2,-1,
O=C(CCNC(=O)c1ccc([N+](=O)[O-])cc1)NCCc1ccc(Cl)cc1,-5,i,8,-8,-9,0,-3,-2,
c1cncc(-c2nc(N3CCOCC3)c3ccccc3n2)c1,-23,/,/,5,38,/,-8,3,
O=c1[nH]c2cc3c(cc2cc1CN(CCO)S(=O)(=O)c1ccccc1)OCCO3,-4,i,0,-11,-8,-10,1,5,
CN(C)c1nn(C(=O)Nc2ccc(Cl)cc2Cl)cc1-c1ccccc1,-24,i,-3,5,11,-33,5,4,
COc1ccc(Cl)cc1NC(=O)CN1CCc2ccccc21,/,i,-6,-17,-4,1,-3,3,
COc1cc(NC(=O)CSc2nc3cc(C)ccc3cc2C)c(C(=O)O)cc1OC,/,i,-3,14,2,-15,0,3,
CC(C)(C)NC(=O)CN(C(=O)CNC(=O)c1cccs1)c1ccc2c(c1)OCCO2,-1,i,-7,-10,2,/,3,4,
Cc1nc(SCc2ccccc2)[nH]c(=O)c1CC(=O)OCC(C)C,-7,i,-7,-11,2,6,3,3,
Cc1ccc(NC(=O)CNc2cccc(S(=O)(=O)N3CCOCC3)c2)cc1F,-16,i,-4,/,/,/,3,-7,
O=C(c1nnsc1S(=O)c1ccc(Cl)cc1)N1CCOCC1 (configuration not stated),-31,i,/,0,22,-3,-17,-14,
Cc1cc(C)nc(SCC(=O)NN=Cc2ccc(C)o2)n1,-22,/,3,/,/,7,-6,1,
CCn1c(SCC(=O)N2CCc3ccccc32)nnc1-c1ccncc1,-14,i,7,13,52,-45,-1,3,eIF4H inh retest=-5;PABP polyA inh retest=-1
CSc1nc(-c2ccccc2)nc(C(C)C)n1,-8,/,0,/,/,5,2,1,

# High-throughput results deposited in PubChem by several laboratories.

# Rows were taken by chance; any-hit rate near 3%.
